Source: PubChem BioAssay (PCMD)
Biofilm kill mix: mixture kills Candida albicans biofilm cells; C. albicans biofilm persisters + clotrimazole, fluorescence viability; primary screen in compound mixtures of four per well; inhibition, % at 7.6 µM; hit rate 0.02% among 120,000; AID 1242;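 active = inhibition above 30.3% in the primary screen of four-compound pools, then above 30% when the compound was retested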;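 also: compounds exposed to preformed 24 h biofilms for 48 h; the number belongs to the whole pool; some results filed as inactive read as strong as hits; inactives centre near 12; 0% = biofilm with clotrimazole alone and 100% = kill control; retested singly at about 60 µM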
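Probe or stimulus – Clotrimazole 50 µg/mL co-treatment · System – C. albicans biofilms · Schedule – 24 h biofilm formation, then 48 h compound exposure, 37 °C · Evaluation – percent inhibition of biofilm viability · Technique – 2-h Alamar Blue fluorescence, 535/590 nm excitation/emission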
Active calls of the source: *.

SMILES	Biofilm kill mix
Cc1cc(C)cc(C(=O)NCC(=O)OCC(=O)N(C)C2CCS(=O)(=O)C2)c1 (centres undefined)	6.1
O=C(NNS(=O)(=O)c1ccc(Cl)cc1Cl)c1cc2ncc(C(F)(F)F)cc2s1	2.6
CN(C(=O)COC(=O)c1cc(-c2ccccc2Cl)nc2ccccc12)C1CCS(=O)(=O)C1 (centres undefined)	7.0
CN=C(Nc1cccc(OC)c1)SC1CC(=O)N(c2ccc(C(=O)O)cc2)C1=O (centres undefined)	-1.6
CCn1cc(CN2CCN(CCc3ccccc3)C(CCO)C2)c(C)n1 (centres undefined)	19.6
O=C(NCCc1csc(-c2cccnc2)n1)c1cccc(Cl)c1	22.6
O=C(c1ccccc1C(=O)N(c1ccccc1)c1ccccc1)N1CCCCC1	11.9
CC(=O)Nc1ccc(N(C(=O)CNC(=O)c2cccs2)C(C(=O)NC(C)(C)C)c2ccccc2)cc1 (centres undefined)	8.2
O=S(=O)(c1cc(Br)c(Cl)s1)N1CCCC1	17.9
CCN(CC)P(=O)(Nc1ccc([N+](=O)[O-])cc1)c1c(C)nn(CCC#N)c1NC(=O)c1ccc(Cl)cc1Cl (centres undefined)	15.7
O=C(Nc1nc(-c2ccccc2)cs1)Nc1ccc(F)cc1F	7.4
NC(=S)N/N=C/c1c(O)c(Br)cc2oc3c(c12)CCCC3	18.1
COc1ccc(CN(C(=O)c2ccco2)c2ccc(C)c(C)c2)cc1	-7.7
COC(=O)CNC(c1ccccc1)c1cc(Br)ccc1NC(=O)CNC(=O)OCc1ccccc1 (centres undefined)	15.7
O=C(NCC1OCCCN1S(=O)(=O)c1cc(F)ccc1F)C(=O)NC1CCCCCC1 (centres undefined)	11.3
Cn1nccc1NC(=O)CC1(CC(=O)O)CCCCC1	15.6
CC(=O)c1ccc(N2CCN(S(=O)(=O)c3cccc4nsnc34)CC2)cc1	3.4
CC1(C)CC(NCCN2CCN(C3=CC(=C(C#N)C#N)CC(C)(C)C3)CC2)=CC(=C(C#N)C#N)C1	26.3
Cc1[nH]n(-c2ccccc2)c(=O)c1/C=N/N1C(=O)c2cccc3cccc(c23)C1=O	12.0
CCOc1ccc(C(CC(=O)O)NC(=O)COc2ccccc2OC)cc1OC (centres undefined)	8.8
CCCCN(C)S(=O)(=O)c1ccc(C(=O)N=c2sc3cc(NC(C)=O)ccc3n2C)cc1	-11.2
Cc1cc(-c2nn(-c3ccccc3)cc2/C=C2\SC(N)=NC2=O)ccc1OC(C)C	27.9
NC(CC(=O)NC(c1ccccc1)(c1ccccc1)c1ccccc1)C(=O)O (centres undefined)	9.8
C=CCNC(=S)N/N=C/c1cn(C)c2ccccc12	20.6
COc1ccc(C(=O)N/N=C/c2cc3ccccc3[nH]c2=O)cc1	15.1
CCCCN(C(=O)CNC(=O)c1cccs1)C(C(=O)NC1CCCCC1)c1cccnc1 (centres undefined)	4.3
Cc1ccc(CNC(=O)C(CCC(N)=O)NC(=O)OCc2ccccc2)cc1 (centres undefined)	9.3
Cc1cccnc1NC(=O)Cn1nc(-c2ccccc2)oc1=S	2.9
C/C(CC(=O)NCc1ccco1)=N\NC(=O)COc1ccc(C)cc1	9.5
CCOC(=O)C1C(CC)NC(=S)NC1(C)O (centres undefined)	17.7

Looked up one by one from the list above (six):
SMILES	Biofilm kill mix
Cc1cccnc1NC(=O)Cn1nc(-c2ccccc2)oc1=S	2.9
C=CCNC(=S)N/N=C/c1cn(C)c2ccccc12	20.6
Cc1ccc(CNC(=O)C(CCC(N)=O)NC(=O)OCc2ccccc2)cc1 (centres undefined)	9.3
CCCCN(C(=O)CNC(=O)c1cccs1)C(C(=O)NC1CCCCC1)c1cccnc1 (centres undefined)	4.3
NC(CC(=O)NC(c1ccccc1)(c1ccccc1)c1ccccc1)C(=O)O (centres undefined)	9.8
C/C(CC(=O)NCc1ccco1)=N\NC(=O)COc1ccc(C)cc1	9.5

Following part
SMILES	Biofilm kill mix
O=S(=O)(Nc1cccc(-c2nnco2)c1)c1ccc(Cl)cc1	11.5
CCOc1ccc2nc(Cl)c(CN(C(C)=O)C3CCCCC3)cc2c1	19.0
Nc1nc(SCC(=O)Nc2ccccc2Oc2ccccc2)n[nH]1	0.1
COCCCNC(=O)C1CCCN(S(C)(=O)=O)C1 (centres undefined)	10.9
CCOC(=O)C1(Cc2ccc(OC)cc2)CCN(C(=O)c2csc(C)n2)CC1	8.8
O=C(O)COc1ccccc1/C=C1\SC(=Nc2ccc(F)cc2)N(c2ccc(F)cc2)C1=O	7.9
CCc1cc(SC#N)cc(C)c1N	7.4
CCN(CC(=O)Nc1ccc(Cl)c(S(=O)(=O)N(C)C)c1)CC(=O)NC(C)C	11.9
O=[N+]([O-])c1ccc(N/N=C2/CCCCC2c2ccccn2)c([N+](=O)[O-])c1 (centres undefined)	15.3
COc1ccc(-c2cc(C#N)nc(Cl)n2)cc1	5.1
COc1ccc(OCCCC(=O)Nc2cccc([N+](=O)[O-])c2C)cc1	13.7
CCOC(=O)c1cnc(-c2ccccc2)nc1-c1ccccc1	25.0
O=C(NCCc1ccccc1)c1ccccc1NC(=O)C1CC=CCC1C(=O)O (centres undefined)	-3.3
CCC(=O)Oc1ccc2c(=O)c(-c3ccc4ccccc4n3)c(CC)oc2c1C	-5.8
COC(=O)c1ccc(COC(=O)c2ccccc2OC)cc1	16.8
CC(=O)c1cn(CCCCCCCn2cc(C(C)=O)c(=O)[nH]c2=O)c(=O)[nH]c1=O	10.3
NC(=O)C1CCN(C(=O)Nc2csc3ccccc23)CC1	20.6
CCCCSc1nnc(-c2ccc(C)cc2)c2ccccc12	11.2
Cc1ccc(NC2=NCC(Cc3ccc(Br)cc3)S2)cc1 (centres undefined)	24.7
O=C(CCc1nnc(Cc2c[nH]c3ccccc23)o1)NC(C1CC1)C1CC1	18.8
CCOC(=O)N1CCC(Nc2ccc(N3C(=O)C4CCCCC4C3=O)cc2[N+](=O)[O-])CC1 (centres undefined)	-5.3
COc1ccc(-c2cc(-c3nnc(COC(=O)CC4CC5CCC4C5)o3)c3ccccc3n2)cc1OC (centres undefined)	4.7
Cc1cnc(C(=O)OCC(=O)Nc2cccc(S(=O)(=O)N3CCCCC3)c2)cn1	3.0
CCOCCCNC(=O)C1CCN(S(=O)(=O)N2CCCC2)CC1	7.8
CN(/N=C/c1ccc(O)cc1O)c1ncc(C(F)(F)F)cc1Cl	30.8
Cc1cc(-c2ccccc2)n(-c2ccc(C(N)=O)cc2)n1	15.6
O=c1c2ccccc2cnn1Cc1n[nH]c(=S)n1-c1ccc(F)c(Cl)c1	16.6
CCn1c(SCC(=O)N2CCN(c3ccccc3)CC2)nnc1-c1ccncc1	8.9
CN(C)c1ccc(/C=N/NC(=O)CN2CCN(c3ccc(F)cc3)CC2)cc1	5.5
Cc1ccc(N2CC(C(=O)Nc3nnc(SCC(=O)Nc4cc(C)on4)s3)CC2=O)cc1 (centres undefined)	10.7

Next section; it opens with the 6 that closed the last part.
SMILES	Biofilm kill mix
CN(/N=C/c1ccc(O)cc1O)c1ncc(C(F)(F)F)cc1Cl	30.8
Cc1cc(-c2ccccc2)n(-c2ccc(C(N)=O)cc2)n1	15.6
O=c1c2ccccc2cnn1Cc1n[nH]c(=S)n1-c1ccc(F)c(Cl)c1	16.6
CCn1c(SCC(=O)N2CCN(c3ccccc3)CC2)nnc1-c1ccncc1	8.9
CN(C)c1ccc(/C=N/NC(=O)CN2CCN(c3ccc(F)cc3)CC2)cc1	5.5
Cc1ccc(N2CC(C(=O)Nc3nnc(SCC(=O)Nc4cc(C)on4)s3)CC2=O)cc1 (centres undefined)	10.7
CCCCc1c(O)nc(SCC(=O)O)[nH]c1=O	3.7
CCCC12CN3CC(C)(CN(C1)C3c1ccco1)C2=O (centres undefined)	10.2
CCOC(=O)c1sc(NC(=O)Cc2ccc(F)cc2)nc1C	-2.6
O=C(N/N=C/c1cccs1)C(O)c1ccccc1 (centres undefined)	14.0
Cc1ccc(N2CN(CCc3ccccc3)CNC2=S)cc1	12.9
CC(C)(C)c1ccc(NC(=O)COC(=O)CCN2C(=O)c3cccc([N+](=O)[O-])c3C2=O)cc1	10.2
[O-]/[N+](=C\c1cccc(Br)c1)c1ccccc1	26.4
CCCCNC(=O)C(c1ccc(OCC(=O)OC)c(C(=O)OC)c1)N(CCc1ccccc1)C(=O)CCCCCN1C(=O)NC(c2ccc(-c3ccccc3)cc2)C(C(=O)OCc2ccccc2)=C1C (centres undefined)	7.0
CCOC(=O)c1cnc2ccc(Cl)cc2c1NCCN(C)C	16.8
COc1ccccc1NS(=O)(=O)c1cccc(C(=O)N/N=C/c2ccc(N3CCOCC3)cc2)c1	6.0
CC(C)CN(C(=O)c1ccco1)c1nc2ccccc2s1	-2.2
Cc1c(NC(=S)NC(=O)C2CCCCC2)c(=O)n(-c2ccccc2)n1C	20.8
COc1ccc(CN(C)C(=S)Nc2ccc(Cl)cc2)cc1	13.1
O=C(COc1ccc([N+](=O)[O-])cc1)Nc1nnc(-c2cccnc2)s1	18.1
O=C(CSc1ncccn1)N1CCN(C(=O)CSc2ncccn2)CC1	16.5
COc1ccccc1C(=O)N/C(=C\c1ccc(Br)cc1)C(=O)NCC(=O)O	14.8
Cc1cc(-c2nnc(CCC(=O)NC(C)c3ccccc3Cl)o2)no1 (centres undefined)	8.8
Cc1nn(C)cc1C(=O)/C=C/c1ccc([N+](=O)[O-])cc1	16.6
Cc1ccc(C2=NN3C(=O)c4ccccc4C3C2)cc1 (centres undefined)	15.7
COc1ccc([N+](=O)[O-])cc1/C=N/NC(=O)Cc1ccccc1	20.2
O=C(C1CCC(CNc2c(N3CCCCC3)c(=O)c2=O)CC1)N1CCCC1 (centres undefined)	7.9
CC(C)(C)c1csc(Sc2ccc([N+](=O)[O-])cn2)n1	16.0
COc1cc(NC(=O)CN2CCCCC2C)c(C)cc1[N+](=O)[O-] (centres undefined)	7.8
CS(=O)(=O)N1CCC(Oc2ccccc2C(=O)N2CCCCC2CO)CC1 (centres undefined)	10.7
Cc1nn(C)c(Cl)c1C(=O)NCC(=O)O	6.6
S=C(NC1CCCCC1)NC1CC2CCC(C1)N2Cc1ccccc1 (centres undefined)	7.0
O=C(CCNS(=O)(=O)c1cccc2nsnc12)NCc1ccco1	7.2
O=C(Nc1nncs1)c1cccc(S(=O)(=O)N2CCc3ccccc32)c1	4.9
Cc1[nH]c2ccccc2c1C(c1ccccn1)N1CCCC1 (centres undefined)	15.6
O=C(O)c1ccc[nH]c1=S	20.8
CCCC(=O)Nc1ccc(Cc2ccc(NC(=O)CCC)c(C(=O)O)c2)cc1C(=O)O	16.7
O=C(CN1C(=O)CSc2ccc(S(=O)(=O)N3CCOCC3)cc21)NCc1cccnc1	17.6
O=C1COc2ccc(C(=O)COC(=O)CNC(=O)C3CCCCC3)cc2N1	5.7
CCOC(=O)c1nc(-c2ccc(OC)c(OC)c2)no1	11.8
CC(NS(=O)(=O)c1ccc2c(c1)OCCCO2)C(=O)O (centres undefined)	16.2
O=C(c1cc(-c2cccnc2)nc2ccccc12)N1CCCc2ccccc21	-11.4
O=C(NN=C1CCCCCCCCCCC1)c1cccnc1	7.5
O=C(NCc1ccncc1)Nc1ccc2c(c1)OCO2	14.2
Cc1ccc(NC(=S)Nc2ccccn2)c(C)c1	5.3
CC(=O)Nc1ccc(S(=O)(=O)N(CC(=O)Nc2cc(C)on2)Cc2ccc(F)cc2)cc1	9.4
COc1ccc(CCNC(=O)Cn2cnc3scc(-c4ccccc4)c3c2=O)cc1OC	10.9
O=C1c2cccc3cccc(c23)C(=O)N1CCCCCc1n[nH]c(=S)o1	3.9
CC(NC(=O)C(=O)Nc1nccs1)c1ccccc1 (centres undefined)	14.4
Cn1cc([N+](=O)[O-])c(C(=O)Nc2ccc3nc(-c4ccccc4)[nH]c3c2)n1	24.0
O=C(O)c1ccc(/C=N/Nc2ccc(F)cc2F)cc1	17.3
CCCCn1c(N)c(N(CC)C(=O)c2cccc(OC)c2)c(=O)[nH]c1=O	21.3
CC1=NNC(=O)C1C(c1cccc(O)c1)C(C#N)C#N (centres undefined)	8.1
CCN(Cc1ccccc1)Cc1nc(CCc2ccccc2)no1	8.9
COC(=O)c1ccc(NC(=O)Nc2ccc(OC)c(OC)c2)cc1	2.5
Cc1ccc(S(=O)(=O)Nc2cc(C)nn2-c2ccccc2)cc1	18.7

The results go on.
SMILES	Biofilm kill mix
Cn1cccc1/C=C1\CCc2ccccc2C1=O	23.9
Cc1cccc(NC(=S)NNC(=O)c2csc(C)c2)c1	-1.1
CCOC(=O)C1(CCCc2ccccc2)CCN(C(=O)Cc2nonc2C)CC1	8.3
O=C(Cc1cccs1)N(c1ccc(Br)cc1)C1C=CS(=O)(=O)C1 (centres undefined)	16.1
O=C(NNC(=O)c1cccc(S(=O)(=O)N2CCc3ccccc32)c1)c1ccccc1	4.5
CC1C/C(=N\NC(=O)c2cccnc2)CC(C)(C)C1 (centres undefined)	4.2
O=C(/C(=N/N=C/c1ccc(O)c(O)c1)c1ccccc1)c1ccccc1	4.0
COc1ccc(NC(=O)CSc2ncnc3c2nnn3-c2ccc(F)cc2)c(OC)c1	11.1
CC1CC(C)CN(S(=O)(=O)c2ccc(C(=O)NCc3ccco3)cc2)C1 (centres undefined)	12.1
NC(=O)c1ccc(NC(=O)COC(=O)C2(c3cccc(F)c3)CCCC2)cc1	15.1
C=CCOc1c(Br)cc(/C=N/NC(N)=O)cc1OC	19.4
O=C(CSc1nnc(CN2CCCCC2)n1-c1ccccc1)c1ccc2c(c1)OCO2	16.5
O=c1[nH]c2cc3c(cc2cc1CN(Cc1ccco1)C(=S)NCC1CCCO1)OCCO3 (centres undefined)	-0.7
COc1ccc(C2Nc3ccccc3C(=O)N2c2ccccc2)cc1Cn1cc([N+](=O)[O-])cn1 (centres undefined)	23.7
C#CCNC(=O)C1=C[C@@H](c2coc3ccccc3c2=O)C[C@@H](OCc2ccc(CO)cc2)O1	13.1
CN1CCN(c2cc(N3CCc4ccccc4C3)c(F)cc2[N+](=O)[O-])CC1	14.2

The list is partial (hit frequency here may not be typical).
